AmpC nodet inh: blocks E. coli AmpC beta-lactamase in absence of detergent | hit rate 1.8% among 71,000 | P00811 | Potency, µM (series often up to 28.7 µM), for the others: top-dose activity change, negative = inhibition | AmpC nitrocefin hydrolysis, absorbance 480 nm, no detergent; potencies from a single point are estimates; active = falling curve, for most hits resting on a single point; inconclusive = weak or doubtful change; inactive = flat or rising curve; also: % of control where 0% means no effect; about half of the hits show no inhibition at the top dose; a quarter of the inactives give rising signals
Target sequence (P00811 whole entry, looked up): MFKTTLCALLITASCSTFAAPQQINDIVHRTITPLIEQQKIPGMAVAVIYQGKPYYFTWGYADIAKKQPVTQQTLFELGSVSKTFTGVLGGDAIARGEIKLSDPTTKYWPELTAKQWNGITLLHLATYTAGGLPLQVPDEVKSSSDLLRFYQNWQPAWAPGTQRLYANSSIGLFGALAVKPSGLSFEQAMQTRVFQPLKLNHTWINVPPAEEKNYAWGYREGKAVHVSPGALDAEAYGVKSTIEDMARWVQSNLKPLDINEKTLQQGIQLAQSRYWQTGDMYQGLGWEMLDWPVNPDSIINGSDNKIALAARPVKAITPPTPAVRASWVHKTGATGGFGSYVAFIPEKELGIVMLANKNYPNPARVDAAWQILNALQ
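Enzyme, pH 7.0 phosphate. Compound titrations were pre-incubated with AmpC for 15 min at room temperature before nitrocefin (stock 800 uM) addition; product formation was recorded at 480 nm every 20 s for 4 min.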
Numbers without * were called inactive; ? = inconclusive; [ ] = another dose, or the depositor's remark. Potency is read from the fitted curve at half-maximal effect. A portion of the library, so the mix of outcomes need not match the whole.

Compound	AmpC nodet inh
CC1CCCN(C(=O)c2ccc3nc[nH]c3c2)C1 (stereo unspecified)	0%
Cn1cccc1C(=O)NC(=O)CSc1cccc[n+]1[O-]	-2%
O=C1CC(c2ccccc2)CC2=C1CN(C1CCCCC1)CN2 (stereo unspecified)	20%
CC(=NCC1CCCO1)c1c(O)n(Cc2ccccc2)c(=O)[nH]c1=O (stereo unspecified)	10%
COc1ccccc1CNc1nc(-c2cccc(C#N)c2)nc2ccccc12	?
Cn1c(N2CCCC2)nc2c1c(=O)n(Cc1ccc(Cl)cc1)c(=O)n2C	84%
O=C(Cn1c(C(=O)N2CCN(C3CCCC3)CC2)cc2sccc21)c1ccccc1	112%
Cc1nnc(SCC(=O)Nc2nc(-c3ccccc3)cs2)n1N	-9%
Cn1nnnc1SCC(=O)Nc1ccccc1N1CCCCC1	11%
Cc1c(S(=O)(=O)Nc2cccc(Cl)c2)c(=O)n(C)c(=O)n1C	98%
CSc1nnc2n(-c3ccccc3)c(=O)c3c4c(sc3n12)CCC4	38%
Cc1cccc(CS(=O)(=O)Cc2ccc(C(=O)NCC3CCCO3)o2)c1 (stereo unspecified)	-1%

Sorted by count of non-hydrogen atoms (highest first): 3 of the compounds above
Compound	AmpC nodet inh
COc1ccccc1CNc1nc(-c2cccc(C#N)c2)nc2ccccc12	?
CSc1nnc2n(-c3ccccc3)c(=O)c3c4c(sc3n12)CCC4	38%
Cn1cccc1C(=O)NC(=O)CSc1cccc[n+]1[O-]	-2%

New compounds follow:
Compound	AmpC nodet inh
COCCSc1nnc(NC(=O)C2CCCCC2)s1	-4%
CN(Cc1cccs1)c1ncnc2sccc12	-17%
Nc1ccc(Cc2ccc(N)c(C(=O)O)c2)cc1C(=O)O	-7%[5.75 µM]
O=S(=O)(c1ccc(-c2nnc(SCc3nnc(-c4ccccc4)o3)o2)cc1)N1CCCC1	12%
COc1ccc(C(=O)Nn2c(SCC(=O)NCC3CCCO3)nc3ccccc3c2=O)cc1 (stereo unspecified)	-2%
COc1ccc(NC(=O)N2CCN(S(C)(=O)=O)CC2)cc1OC	-1%
Cn1nc(-c2ccc(OCC(=O)NCC3CCCO3)cc2)c2ccccc2c1=O (stereo unspecified)	25%
O=C(Nc1cccc(Cl)c1N1CCCC1)c1ccc(Br)o1	1%
O=C(CSc1nnc(-c2cccs2)n1CC1CCCO1)c1cc2ccccc2o1 (stereo unspecified)	2%
Cc1ccc2oc(=O)c3cc(C(=O)NCc4ccco4)sc3c2c1	4µM*[single pt active]
CCOc1ccc2nc(NC(=O)Nc3cccs3)sc2c1	3.2µM*[single pt active]
Cc1nn(-c2ccccc2)c(C)c1C(=O)OCC(=O)N1CCN(S(=O)(=O)c2ccccc2)CC1	98%
CCCC(=O)Nc1nnc(Cc2ccccc2)s1	-3%
COc1ccc(NC(=O)CSc2nnc(Cc3cccn3C)n2CCc2ccccc2)c(OC)c1	120%
Cc1ccc(-n2nc(-c3ccco3)cc2C(=O)NCc2cccnc2)cc1	55%
CCC(C)(C)n1nnnc1C(c1ccc(OC)c(OC)c1)N1CCN(c2cccc(OC)c2)CC1 (stereo unspecified)	104%
Cc1ccc(Cn2nnc3c(=O)n(Cc4ccccc4C)cnc32)cc1	-2%
O=C(NCc1ccccn1)c1ccc(Cn2cc(Br)cn2)o1	10%
CC1=NOC2(C1)N(C)c1ccccc1C2(C)C (stereo unspecified)	2%
Cc1ccccc1-n1nc2c(c1NC(=O)c1c(-c3ccccc3Cl)noc1C)CSC2	-3%
CCOC(=O)c1[nH]c(CSc2nnc(-c3ccncc3)n2CCOC)c(C(=O)OCC)c1C	107%
N#Cc1cnc2sc3ccccc3n2c1=N	-11%
CN1C(=O)C2C=CC1C1C(=O)N(c3ccccc3)C(=O)C21 (stereo unspecified)	0%
COc1cc(NS(=O)(=O)c2ccc(NC(=O)c3ccco3)cc2)nc(OC)n1	-12%

Of the compounds above, these have a Cl atom:
Compound	AmpC nodet inh
Cn1c(N2CCCC2)nc2c1c(=O)n(Cc1ccc(Cl)cc1)c(=O)n2C	84%
Cc1c(S(=O)(=O)Nc2cccc(Cl)c2)c(=O)n(C)c(=O)n1C	98%
O=C(Nc1cccc(Cl)c1N1CCCC1)c1ccc(Br)o1	1%
Cc1ccccc1-n1nc2c(c1NC(=O)c1c(-c3ccccc3Cl)noc1C)CSC2	-3%

Later entries:
Compound	AmpC nodet inh
COC(=O)c1ccc(Cl)c(NC(C)=O)c1	-2%
CCSc1nnc(NC(=O)CSc2nc3c(c(=O)n2CC)SC(C)C3)s1 (stereo unspecified)	-2%
Cc1ccc(S(=O)(=O)NC(CC(=O)O)c2ccccc2)cc1 (stereo unspecified)	0%
O=C(CN(Cc1cccs1)C(=O)CNC(=O)c1ccco1)NC1CCCCC1	1%
COC(=O)CC[C@@H](C)[C@H]1CC[C@H]2[C@H]3CC[C@H]4C[C@@H]5CC[C@@]4(C)C3(O5)[C@@H](Br)[C@@H](Br)[C@@]12C	-6%[5.75 µM]
Nc1nc(N2C(=O)C3CC=CCC3C2=O)nn1-c1ccccc1 (stereo unspecified)	-6%
Cn1c(CSc2nc3ccccc3s2)nc2ccccc21	7%
C[C@@H](N)C(=O)O	13%
Cc1ccc(Cn2nnc3c(=O)[nH]c(C4CCCN(C(=O)Nc5ccc(F)cc5)C4)nc32)cc1 (stereo unspecified)	-2%
Cc1ccc(N2CCN(CCC(=O)O)CC2)cc1	14%[5.75 µM]
O=C(NC1CCCCC1)N(Cc1ccccc1)Cc1ccco1	4%
CCn1c(NCc2ccccn2)nc2c1c(=O)n(C)c(=O)n2C	-9%

In the list so far, 3 contain bromine.
Compound	AmpC nodet inh
O=C(Nc1cccc(Cl)c1N1CCCC1)c1ccc(Br)o1	1%
O=C(NCc1ccccn1)c1ccc(Cn2cc(Br)cn2)o1	10%
COC(=O)CC[C@@H](C)[C@H]1CC[C@H]2[C@H]3CC[C@H]4C[C@@H]5CC[C@@]4(C)C3(O5)[C@@H](Br)[C@@H](Br)[C@@]12C	-6%[5.75 µM]

Next results
Compound	AmpC nodet inh
CCCCN(CCCC)S(=O)(=O)c1ccc2oc(C(=O)N3CCOCC3)c(C)c2c1	129%
O=C(NCC(c1cccs1)N1CCOCC1)c1cc2ccccc2o1 (stereo unspecified)	45%
Cn1c(=O)c2cc(S(=O)(=O)NC(Cc3ccccc3)C(=O)NCc3ccco3)ccc2n(C)c1=O (stereo unspecified)	4µM*[single pt active]
CCNc1ncc2nc(-c3ccc(OC)cc3)c(=O)n(Cc3ccc(F)cc3)c2n1	-8%
CCCc1[nH]nc2c1C(c1ccc(OC)c(CSC3=NCCS3)c1)C(C#N)=C(N)O2 (stereo unspecified)	-6%
CCn1cnc2c(Nc3cccc(Cl)c3)nc(N[C@@H]3CCCC[C@H]3N)nc21	30%
O=C(C1=C(O)C(=O)N(Cc2ccccc2)C1c1ccncc1)c1ccco1 (stereo unspecified)	0%
O=C(NC1CCCC1)C1c2ccccc2C(=O)N1C1CCCCC1 (stereo unspecified)	9%
CC(=O)N1CCN(S(=O)(=O)c2ccc(C)cc2)C1C(C)C (stereo unspecified)	-1%
CC(C)CCN(C)C1CCN(C(=O)Nc2c(F)cccc2F)CC1	-14%
CCOc1ccc(OCC)c(NC(=O)CSc2nc3c(c(=O)n(C)c(=O)n3C)n2C)c1	2%
O=C(C1CCN(c2ccc(N3CCOCC3)nn2)CC1)N1CCc2ccccc2C1	54%
O=C1c2ccccc2C(=O)N1c1nc(-c2cccs2)cs1	-6%
O=C(CCSc1ccccc1)Nc1ccc(S(=O)(=O)N2CCOCC2)cc1	-1%
CN1CCC(O)(c2ccccc2)C2CCCC21 (stereo unspecified)	-13%
COCCn1c(=O)c(-c2ccc(Cl)cc2)nc2cnc(Oc3ccccc3)nc21	6%
O=C(CSc1nnc(CNC(=O)c2ccco2)o1)c1ccccc1	-6%
O=C(O)CCCC[C@@H]1SC[C@H]2NC(=O)N[C@H]12	11%
Cc1cc(C)cc(-n2nnc(C(=O)NCc3ccc(Cl)cc3)c2N)c1	-18%
CCOC(=O)COc1ccc(N)cc1CC(NC(C)=O)(C(=O)OCC)C(=O)OCC	30%
CC(C)Sc1nc2c(cnn2-c2ccc(F)cc2)c(=O)[nH]1	-1%
CC1(C)Cc2ccccc2C(/C(=N/O)C(N)=O)=N1	0%
CCc1ccc2[nH]c(=O)c(C(c3nnnn3CCOC)N3CCN(c4ccc(F)cc4)CC3)cc2c1 (stereo unspecified)	114%
Cc1ccccc1-n1nnnc1SCC(=O)Nc1ccc(S(=O)(=O)N2CCCC2)cc1	?
O=C(COc1ccccc1)Nc1ccc2c(c1)nc1n2CCSC1	3%
Cn1cccc1C(=O)NC(=O)COC(=O)c1ccccc1Sc1ccccc1C#N	4µM*
O=C1C(SC(F)(F)C(F)F)=C(C(F)(F)F)OC2C3C=CC(C3)C12 (stereo unspecified)	4%
Clc1ccccc1Cn1nnc2c(Nc3ccccc3)ncnc21	-15%
Cc1nnc(SCCn2c(N3CC(C)CC(C)C3)nc3c2c(=O)n(C)c(=O)n3C)s1 (stereo unspecified)	46%
COc1cc(NC(=O)c2ncn[nH]2)cc(OC)c1OC	0%
COc1cc(NS(=O)(=O)c2ccc(NS(=O)(=O)c3ccccc3)cc2)nc(OC)n1	-17%
COc1ccccc1-n1c(SCC(=O)O)nnc1-c1ccc(S(=O)(=O)N2CCCCC2)cc1	16%
CC1CCN(C(=O)CN(C)S(=O)(=O)c2cccc3nsnc23)CC1	-9%
CCN(CC)CCCN1C(=O)C(O)=C(C(=O)c2ccco2)C1c1ccc(C)o1 (stereo unspecified)	2%
O=c1oc2ccccc2n1CCCOc1ccccc1	15%
CN(C)c1nc(N2CCCCC2)nc(N2CCCCC2)n1	4µM*[single pt active]
Cc1c(C(=O)N2CCOCC2)oc2ccc(S(=O)(=O)N3CCCC3)cc12	14%
O=C(OC1CCN(CCCl)CC1)C(c1ccccc1)c1ccccc1	61%
COCCn1c(C)cc(C(=O)COC(=O)c2ccc(-n3nc(C)cc3C)cc2)c1C	66%
CCC1CCCCN1CCNS(=O)(=O)c1ccc2c(c1)CCN2C(C)=O (stereo unspecified)	-8%
Cc1ccc(C2c3c(oc4ccc(Cl)cc4c3=O)C(=O)N2CCCN2CCOCC2)o1 (stereo unspecified)	56%
COC(=O)[C@@]1(Cc2ccc(OC)cc2)[C@H]2c3cc(C(=O)N(C)C)n(CCc4ccccn4)c3C[C@H]2CN1C(=O)c1ccccc1	161%
S=C(c1ccc(-c2cccc(Cl)c2)o1)N1CCOCC1	-7%
COc1cc(CNC(=O)c2ccc(Cn3nc(C)c(Cl)c3C)o2)cc(OC)c1	105%
COc1cc(C)c(S(=O)(=O)NCc2cccs2)cc1C	-15%
COc1ccccc1N1CCN(S(=O)(=O)Cc2ccccc2Cl)CC1	14%
CCOc1ccc(C(=O)c2ccc(OCC)c(N)c2)cc1N	11%
CCCC(NS(=O)(=O)c1ccc(OC)cc1)C(=O)O (stereo unspecified)	-9%
c1ccc2oc(-c3nn4c(Cn5cnc6ccccc65)nnc4s3)cc2c1	25%
O=C(Nc1ccc2nn(-c3ccccc3)nc2c1)c1ccc2c(c1)OCO2	-20%
CC(C)COc1cc(=O)[nH]c(SCC(C)C)n1	0%
CCNc1cc(=O)n(C)c(=O)n1C	-2%
COC(=O)c1ccccc1NC(=O)COC(=O)c1ccc(C)c(NC(=O)c2ccco2)c1	58%
COc1ccc2[nH]c(=O)c(-c3noc(-c4ccccc4)n3)cc2c1	-6%
Cc1ccc(C(=O)CSc2nnc(COc3cccc(C)c3)o2)cc1	8%
CC1(C)CC2CC(C)(CN2C(=O)COC(=O)Cn2[nH]c(=O)c3ccccc3c2=O)C1 (stereo unspecified)	35%
N#Cc1nc(Cc2ccccc2)oc1N1CCC(C(N)=O)CC1	5%
COC(=O)c1nc2cc(C)ccn2c1F	-2%
Cc1cccn2c(=O)c3cc(C(=O)NCCN4CCOCC4)c(=N)n(CCc4ccccc4)c3nc12	42%
CC(=O)N1CCc2cc(S(=O)(=O)NCCC(=O)Nc3cccc(C)c3)ccc21	-13%

New compounds follow:
Compound	AmpC nodet inh
CCOc1ccccc1NC(=O)Cn1cnc2c(nnn2-c2cccc(OC)c2)c1=O	5%
CC(C)N(CCCNC(=O)C1CCN(S(=O)(=O)N2CCOCC2)CC1)Cc1ccccc1	-18%
O=C(Cc1ccccc1)N1CCN(CC2CC=CCC2)CC1 (stereo unspecified)	34%
CCN(CC)c1ncnc2sc(C(=O)N3CCN(c4ccc(OC)cc4)CC3)c(C)c12	101%
CC1OC(NCCc2ccccc2)C(O)C(O)C1O (stereo unspecified)	-9%
COc1ccc(CCNC(=O)CN2CCN(c3cccc(Cl)c3)CC2)cc1OC	152%
CC(=O)NCCNc1ncnc2ccc(-c3ccccc3Cl)cc12	49%
CCOC(=O)c1cc2sc(C)cc2n1CC(=O)Nc1cccc(C)c1C	-12%
CCC1S/C(=C(\C#N)C(=O)NCc2ccco2)N(c2ccc(F)cc2)C1=O (stereo unspecified)	-2%
O=C(CN1CCN(Cc2ccc(Cl)cc2)C1=O)NCCN1CCCC1	65%
CCN1CCCC1CNCc1ccc(Cl)cc1Cl (stereo unspecified)	-14%
O=C(NCc1ccccc1)NC1(C(=O)N2CCCC2)CCCCC1	4%
CN(C)c1ccc(CN(C(=O)c2ccco2)C2CCS(=O)(=O)C2)cc1 (stereo unspecified)	24%
COc1ccc2c(c1OC)C(=O)OC2CC(=O)c1ccc2c(c1)OCO2 (stereo unspecified)	18%
CCc1c(C)sc(NC(=O)c2cnn3cccnc23)c1C#N	17%
Cc1ccc(S(=O)(=O)N2CCCC(C(=O)NCCCN3CCCCC3C)C2)cc1 (stereo unspecified)	3%
